CBX7 inh – CBX7 inhibition, primary AlphaScreen; O95931; AlphaScreen His6-CBX7 / biotin-H3K27me3 peptide binding; hits give low values; normalised signal (fraction of DMSO) (concentration not given with the values); 1.1% of 66,000 active; AID 1224903; in the data active means normalised signal below about 0.5;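 further: 100 nL library stock added to about 20 µL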
Target sequence (O95931 whole entry, looked up): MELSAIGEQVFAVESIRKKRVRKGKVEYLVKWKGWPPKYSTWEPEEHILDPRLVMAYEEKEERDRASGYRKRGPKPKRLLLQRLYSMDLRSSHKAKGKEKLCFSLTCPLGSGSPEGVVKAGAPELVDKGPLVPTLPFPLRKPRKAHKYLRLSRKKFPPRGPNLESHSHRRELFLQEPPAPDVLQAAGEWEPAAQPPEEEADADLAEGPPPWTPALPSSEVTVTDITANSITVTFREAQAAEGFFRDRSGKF
CBX7 inh z-score – second read-out of CBX7 inh, no call of its own (marks repeat the call); z-score; measured here: z-score of CBX7 signal; some inactives read as strong as hits; reference of the scale not given here;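 same signal on another scale; lower means less binding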
Active calls of the source: *; & = joins results of further samples.

No.	Molecule	CBX7 inh z-score	CBX7 inh
1	CN(C(=O)C(c1ccccc1)c1ccccc1)C1CCS(=O)(=O)C1 (stereo not given)	-0.18	0.98
2	Cc1ccc(NC(=O)CC2Oc3ccccc3NC2=O)cc1C (stereo not given)	-0.62	0.97
3	COc1ccc(NC(=O)Cn2cc(S(=O)(=O)c3ccc(C)cc3)c(=O)c3cc(Cl)ccc32)cc1	0.65	1
4	Cc1ccc(S(=O)(=O)N2CCC(C(=O)NCCc3ccc(Cl)cc3)CC2)cc1	1.5	1
5	Cc1nc(N2CCC(C)CC2)c2c(C)c(C(=O)N3CCCC3)sc2n1	-1.8	0.87
6	CCn1c(COc2ccc3ccccc3c2)nc2ccccc21	-0.22	0.98
7	COc1cc(OC)c(NC(=O)CCc2nc(-c3cccs3)no2)cc1Cl	-0.94	0.97
8	O=S(=O)(Nc1nc(-c2cccs2)cs1)c1ccc(-c2ccccc2)cc1	-1.7	0.9
9	Cc1ccc(Nc2c(-c3ccc(Cl)cc3)nc3cccc(C)n23)cc1	-3.2	0.81
10	Cc1ccc(N2C(=O)CC(c3ccsc3)C3=C2CC(C)(C)CC3=O)cc1 (stereo not given)	1.1	1.1
11	NS(=O)(=O)c1ccc(CCNC(=O)CN2C(=O)COc3ccc(S(=O)(=O)N4CCCC4)cc32)cc1	0.55	1
12	CCCCNC(=O)C1CCC(=O)N1Cc1ccc(F)cc1 (stereo not given)	0.94	1
13	COc1ccc(CNC(=O)c2noc3c2CCCCC3)cc1	0.62	1.1
14	COc1ccccc1NC(=O)CSc1nccn1-c1ccc(Cl)cc1	-1.7	0.51
15	Cc1ccc(NC(=O)C2CCN(S(=O)(=O)c3cccc4nonc34)CC2)cc1	-0.0033	1
16	O=C(c1ccc(F)cc1)c1ccc(-c2[nH]c(-c3ccc(C#Cc4ccccc4)cc3)nc2-c2ccccc2)cc1	1.6	1.1
17	Fc1ccc(-c2nnc(Cc3ccc(Cl)cc3)o2)cc1	0.15	1
18	COc1cccc(-c2nc(CS(=O)(=O)CC(=O)NCCCN(C)Cc3ccccc3)c(C)o2)c1	-0.34	0.99
19	CCC(CO)Nc1ncnc2c1cnn2-c1ccc(Cl)cc1 (stereo not given)	-2.2	0.86
20	COc1ccc(-c2nc(C#N)c(N3CCN(Cc4ccccc4)CC3)o2)cc1	-4.6	0.68
21	Fc1cccc(F)c1CSc1nnc(-c2ccco2)n1-c1ccccc1	0.12	1
22	Cc1c(NC(=O)c2ccc(OCc3ccccc3)cc2)cccc1-c1nc2ncccc2o1	0.48	1.1
23	CCc1ccc(S(=O)(=O)Nc2cccc(-c3cn4ccccc4n3)c2)cc1	-0.62	0.98
24	COc1cccc(C2CC(c3ccc(Cl)cc3)Nc3ncnn32)c1OC (stereo not given)	2	1.1
25	N#Cc1ccccc1NC1c2ccccc2C(=O)N1Cc1ccccc1 (stereo not given)	0.17	1
26	COc1cccc(CNC(=O)CCCc2cn(C)c3ccccc23)c1	-8.2	0.53
27	O=C(O)CCC(=O)N1CCc2cc(S(=O)(=O)N3CCCCCC3)ccc21	-1.5	0.91
28	CN(C)c1ccc(-c2nc3ccccc3n2CCOc2ccccc2)cc1	-2.3	0.79
29	CCN(CCNC(=O)C1CCN(Cc2nc(-c3ccccc3F)oc2C)CC1)c1ccccc1	-0.67	0.94
30	Cc1ccn2c(Nc3ccc4c(c3)OCCO4)c(-c3ccsc3)nc2c1	0.022	1
31	CC(C)(C)N1C(=O)c2ccccc2C1C(=O)NC1CCCC1 (stereo not given)	0.54	1
32	Cc1ccc(Cc2c(C)nc3c(C(=O)N4CCN(c5cccc(C)c5C)CC4)cnn3c2C)cc1	-11	0.58
33	COc1ccc(NC(=O)CSc2nc3ccccc3[nH]2)cc1	-0.43	0.96
34	O=C(CSc1nnc(-c2ccncc2)o1)Nc1ccccc1	-0.0027	1
35	CCOC(=O)N1CCC(N2Cc3cccc(C(=O)NCc4ccc(C)cc4)c3C2=O)CC1	-0.79	0.98
36	Clc1ccc(Cc2nnc(-c3ccccc3Br)o2)cc1	1.3	1.1
37	COc1cccc(C2CC(c3ccc(F)cc3)Nc3ncnn32)c1OC (stereo not given)	-0.73	0.97
38	CCCN(CCC)S(=O)(=O)c1ccc2c(c1)CC(C)N2C(C)=O (stereo not given)	2.5	1.1
39	COc1ccc(C(=O)Nc2cccc(-c3nc4ccccc4s3)c2)cc1	1.9	1.2
40	COCCCNC(=O)c1ccc2c(c1)ncn2-c1ccc(C(C)C)cc1	1.4	1.1
41	Cc1cccc(Nc2nc3nonc3n3c(C)nnc23)c1C	-0.66&-0.48	0.94&0.98
42	O=C(CN1N=C(c2ccc(Cl)cc2)CCC1=O)NCc1ccccn1	0.97	1.1
43	CCOC(=O)N1CCC(NC(=O)CN2C(=O)CCSc3ccccc32)CC1	2.8	1.1
44	Cc1ccc(S(=O)(=O)N(CC(O)CN2CCCC2)c2cccc3ccccc23)cc1 (stereo not given)	0.63	1.3
45	COc1cc(-c2nc(Nc3ccc(Oc4ccc(Cl)cc4)cc3)c3ccccc3n2)cc(OC)c1OC	0.87	1.1
46	Cc1ccc(NC(=O)Cn2ncc3c2-c2ccccc2OC3)nc1	-2.2	0.92
47	O=C(Nc1ccc(Br)cn1)c1cc2nc(-c3cccs3)cc(C(F)(F)F)n2n1	0.67	1.1
48	COC(=O)CNC(c1ccccc1)c1cc(C)ccc1NC(=O)c1cc(OC)c(OC)c(OC)c1 (stereo not given)	-0.75	0.98
49	O=C(O)c1ccc(Nc2nc(-c3ccccc3)c3cc(Br)ccc3n2)cc1	2	1.1
50	O=C(c1cc2c(s1)-c1ccccc1OC2)N1CCN(c2ccc(F)cc2)CC1	-0.37	0.99
51	COc1ccc(C2C(C(=O)Nc3ccc(C)c(F)c3)CCC(=O)N2c2ccc3c(c2)OCO3)cc1 (stereo not given)	-0.46	0.99
52	Cc1ccc(CC2CC(=O)N(c3cccc(C(F)(F)F)c3)C2=O)cc1 (stereo not given)	2.9	1.1
53	CCN1CCN(c2ncc(C(=O)Nc3cc(Cl)c(OC)cc3OC)c3ccccc23)CC1	3.3	1.3
54	COC(=O)c1ccc(Cc2nc3ccccc3[nH]c2=O)cc1	2.1	1.2
55	O=C(Nc1ccc(Cl)cc1F)C1CCN(S(=O)(=O)c2cnc[nH]2)CC1	0.83	1.1
56	O=C(CC(C(=O)N1CCc2ccccc21)n1ccnc1)NCCCN1CCCCCC1 (stereo not given)	1.2	1

Going on with the list.
No.	Molecule	CBX7 inh z-score	CBX7 inh
57	O=C1CCCc2oc3c(Cl)cc(NS(=O)(=O)c4ccc(Br)cc4)cc3c21	0.36	1
58	O=C(NCc1cccnc1)c1ccc(NC2=NC3CS(=O)(=O)CC3S2)cc1 (stereo not given)	-1.5	0.8
59	Cc1ccsc1CCN1C(=O)N(c2ccc(F)cc2)C(=O)C1CC(=O)Nc1ccccc1 (stereo not given)	4.3	1.1
60	O=C(Nc1cccc(-c2nc3ccccc3o2)c1)c1ccc(F)cc1	1.9	1.2
61	CC(Oc1cccc(Cl)c1)n1cncn1 (stereo not given)	0.38	1
62	COc1cccc(NC(=O)CSc2nc3nc(C)c(Cc4ccc(C)cc4)c(C)n3n2)c1	1	1.1
63	CC(=O)Oc1cccc(C(=O)Nc2cc(C)on2)c1	0.89	1
64	O=C(O)C1Cc2c([nH]c3ccccc23)C(c2ccc(Br)cc2)N1 (stereo not given)	-2.7	0.75
65	CCN1C(=O)c2ccccc2S(=O)(=O)c2ccc(C(=O)N3CCC(Cc4ccccc4)CC3)cc21	-5.1	0.8
66	COc1ccccc1CNC(=O)c1cc(=O)n(Cc2ccc(Cl)cc2)c2ccccc12	-0.17	0.99
67	Cc1ccc(-n2c3c(cc(C(=O)Nc4ccc(Br)cc4)c2=O)C(=O)CCC3)cc1	0.43	1.1
68	FC(F)(F)c1cc(-c2cccs2)nc(-n2cncn2)n1	1.2	1
69	COc1ccc(C)cc1NC(=O)c1cnc(Nc2ccc(C)c(Cl)c2)c2ccccc12	12	1.3
70	COc1ccc(Nc2oc(-c3ccc(OC)cc3)nc2C#N)cc1	0.2	1
71	COc1ccc(NC(=O)C2CCN(S(=O)(=O)c3ccc(Cl)cc3)CC2)cc1	1	1
72	Cc1cccc(-c2cc(C(=O)NCCc3cccc(Cl)c3)c3ccccc3n2)c1	-0.74	0.97
73	Cc1cc(C)cc(-n2c(C)nc3cc(C(=O)NCc4ccccn4)ccc32)c1	0.79	1.1
74	CCCc1nc(NCc2ccccc2)c(C#N)c2c1CCCC2	4	1.1
75	CCCCOc1cccc(C(=O)N(Cc2ccc(OC)cc2)C2CCS(=O)(=O)C2)c1 (stereo not given)	0.062	1.1
76	CC1CCCCN1S(=O)(=O)c1ccc2[nH]c(=O)cc(C(=O)NCc3ccc(F)cc3)c2c1 (stereo not given)	2.7	1.1
77	Cc1ccc(-n2c3c(cc(C(=O)NC(C)c4ccccc4)c2=O)C(=O)CCC3)cc1 (stereo not given)	0.49	1
78	CCOc1ccc(C(=O)N2CC(=O)Nc3ccc(F)cc3C2c2ccccc2)cc1OCC (stereo not given)	-0.15	0.99
79	Cc1cc(N2CCOCC2)nc(-c2ccccc2)n1	0.91	1
80	COc1cccc(C2=NOC(C(=O)NCc3ccccn3)C2)c1 (stereo not given)	-0.19	0.99

Rewritten field by field: entries from further up
#77 Cc1ccc(-n2c3c(cc(C(=O)NC(C)c4ccccc4)c2=O)C(=O)CCC3)cc1 (stereo not given)
  CBX7 inh z-score: 0.49
  CBX7 inh: 1

#78 CCOc1ccc(C(=O)N2CC(=O)Nc3ccc(F)cc3C2c2ccccc2)cc1OCC (stereo not given)
  CBX7 inh z-score: -0.15
  CBX7 inh: 0.99

#79 Cc1cc(N2CCOCC2)nc(-c2ccccc2)n1
  CBX7 inh z-score: 0.91
  CBX7 inh: 1

#80 COc1cccc(C2=NOC(C(=O)NCc3ccccn3)C2)c1 (stereo not given)
  CBX7 inh z-score: -0.19
  CBX7 inh: 0.99

The listing continues:
No.	Molecule	CBX7 inh z-score	CBX7 inh
81	Cc1ccc(C)c(-n2c(-c3ccc(Br)cc3)cc3c2CC(C)(C)CC3=O)c1	-13	0.68
82	Cc1cc(C)nc(Nc2n[nH]c(-c3cccc(Cl)c3)n2)n1	-0.29	0.99
83	CCOC(=O)c1cccc(C(=O)Nc2cc(OC)c(OC)cc2C(=O)O)n1	1.7	1.1
84	COc1ccccc1-c1c(C)nn2c(NCc3ccc(Cl)cc3)cc(C)nc12	0.43	1.1
85	CC(C)CCNC(=O)c1ccc2c(c1)N(Cc1ccc(F)cc1)C(=O)CS2	-0.81	0.92
86	COc1ccc(CNc2nc3ccccc3n2CCN2CCOCC2)cc1	0.52	1
87	CC(=O)Nc1nc(C)c(-c2csc(Nc3cccc(C(C)=O)c3)n2)s1	-0.6	0.98
88	Cc1ccc(Nc2ncc(C(=O)N3CCCCC3)c3ccccc23)cc1Cl	7.7	1.2
89	O=C(Nc1ccc(-c2nc3ccccc3[nH]2)cc1)c1ccc(N2C(=O)CCC2=O)cc1	-0.22	0.97
90	CCNC(=O)c1ccccc1NC(=O)c1cccc(S(=O)(=O)N2CCC(C)CC2)c1	-2	0.81
91	CCc1ccc(OCCSc2nc3ccccc3n2CCO)cc1	-0.25	0.96
92	O=C(CCCCn1c(=O)[nH]c2ccccc2c1=O)N1CCN(Cc2ccc3c(c2)OCO3)CC1	-0.0069	1
93	C=CCSc1nnc(-c2ccccc2NC(C)=O)c(=O)[nH]1	0.4	1
94	COc1ccc(Cl)cc1C(=O)Nc1c2c(nn1-c1ccc(C)cc1)CS(=O)(=O)C2	0.36	1
95	CCCN(CCC)CCCNC(=O)Cn1nc(-c2ccccc2)ccc1=O	0.0066	1
96	NC(=O)C1CC(=O)N(c2ccc(OCC(=O)Nc3ccc(F)cc3)cc2)C1 (stereo not given)	0.53	1
97	Cc1cccc(C(=O)Nc2nc3ccc(S(C)(=O)=O)cc3s2)c1	-0.12	1
98	CCn1cc(C(=O)NC2CCCC2)c(=O)c2ccc(C)nc21	-0.046	1
99	COc1ccc(CNC(=O)C2CC(=O)N(c3ccc(OCC(=O)Nc4ccccc4F)cc3)C2)cc1 (stereo not given)	-1.7	0.91
100	O=C(NCCCN1CCCC1=O)C1CCN(C(=O)c2cnn(-c3ccccc3)c2-n2cccc2)CC1	-0.24	0.9
101	COCCCNC(=O)c1cc(Nc2cc(C)cc(C)c2)nc2ccccc12	1.7	1.1
102	Cc1ccc2c(c1)NC(=O)C(CC(=O)Nc1ccc(CN3CCC(C)CC3)cc1)O2 (stereo not given)	-0.63	0.98
103	Cc1cc(Br)ccc1NC(=O)C1CCN(S(=O)(=O)c2cnc[nH]2)CC1	-0.7	0.95
104	Cc1cc(=O)n2nc(N3CCCC(C(=O)NCc4ccc(F)cc4)C3)sc2n1 (stereo not given)	-0.3	0.97

At a glance, 4 of the compounds above:
No.	Molecule	CBX7 inh z-score	CBX7 inh
100	O=C(NCCCN1CCCC1=O)C1CCN(C(=O)c2cnn(-c3ccccc3)c2-n2cccc2)CC1	-0.24	0.9
101	COCCCNC(=O)c1cc(Nc2cc(C)cc(C)c2)nc2ccccc12	1.7	1.1
102	Cc1ccc2c(c1)NC(=O)C(CC(=O)Nc1ccc(CN3CCC(C)CC3)cc1)O2 (stereo not given)	-0.63	0.98
103	Cc1cc(Br)ccc1NC(=O)C1CCN(S(=O)(=O)c2cnc[nH]2)CC1	-0.7	0.95

(list continues)
No.	Molecule	CBX7 inh z-score	CBX7 inh
105	CCOC(=O)N1CCN(c2c(N(C)C3CCCCC3)c(=O)c2=O)CC1	0.18	1
106	CC1=Nc2cc(C(=O)N3CCCC3)ccc2Sc2c(C)ccc(C)c21	-1.1	0.93
107	Cc1ccc2nc(-c3cc4ccccc4o3)cc(C(=O)O)c2c1	-3.6	0.63
108	O=C(Nc1ccc(Br)cc1F)c1cnc2sccn2c1=O	0.14	1
109	O=C(Nc1cccc(F)c1)C1CCN(S(=O)(=O)c2cccnc2)CC1	-0.84	0.97
110	CCCCCn1c(=O)[nH]c2cc(C(=O)N3CCN(Cc4ccccc4)CC3)ccc2c1=O	-0.025	1
111	O=C(CSc1nccn1-c1ccccc1)Nc1cccc(F)c1	-5.3	0.86
112	CC12CC3(C)CC(N)(C1)CC(O)(C2)C3	0.51	1

Some of the compounds tested (hit frequency here may not be typical).
